StopGo reporter – lowers the luciferase signal of an FMDV 2A StopGo reporter. human cells with a luciferase reporter of 2A StopGo recoding; control for the full effect not named in the record. Potency, µM (titrated, usually from 57.9 µM), for inactives: at the top dose signal change, negative = less light. 1.2% of 410,000 active; active = well fitted falling curve with a large enough effect; inconclusive = small, poorly fitted or top-dose-only effect; inactive = no such curve, though single readings can be large or run the other way; tested in HEK293T cells; also: % is scaled to controls: 0 for no effect and ±100 for the full control effect; nearly all actives have a fitted effect of over 45% in size; luciferase light after 4 h
Cruzain inh noDet – cruzain (T. cruzi) inhibition without detergent. 2.3% of 200,000 active. purified cruzain, Z-FR-AMC fluorescence, no detergent. P25779. AID 1476. Potency, µM, without a hit: max response, negative = inhibition, hits mostly inhibitors;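 also: plate controls were enzyme without inhibitor for no effect and buffer without enzyme for full effect; nearly all actives have a fitted effect of over 40% in size; top concentration of the series not given in the record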
Target sequence (P25779 123-467 limits assumed): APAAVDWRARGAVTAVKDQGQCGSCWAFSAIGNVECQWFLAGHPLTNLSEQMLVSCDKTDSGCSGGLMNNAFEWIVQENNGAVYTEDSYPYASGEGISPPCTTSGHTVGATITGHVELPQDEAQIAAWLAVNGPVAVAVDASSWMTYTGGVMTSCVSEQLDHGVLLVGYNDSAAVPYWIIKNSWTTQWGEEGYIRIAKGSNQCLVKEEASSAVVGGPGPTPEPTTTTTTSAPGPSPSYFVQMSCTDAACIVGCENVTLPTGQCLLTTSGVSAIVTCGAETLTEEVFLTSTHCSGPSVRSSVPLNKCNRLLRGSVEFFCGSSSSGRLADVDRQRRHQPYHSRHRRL
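Purified cruzain at 1.5 nM, pre-incubated 15 min with compound at room temperature in 100 mM sodium acetate pH 5.5, 5 mM DTT, 0.00005% Triton X-100. Reaction started with 2 uM Z-FR-AMC; AMC fluorescence increase over 60 s gives rate.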
Lassa entry inh – Lassa virus entry inhibition; Lassa virus pseudotype entry inhibition, cell reporter; control for the full effect not named in the record; Potency, µM (series often up to 37.9 µM), without a hit: at the highest dose activity change, negative = inhibition, hits mostly inhibitors; 1.2% of 300,000 active; AID 540256; active means well fitted inhibition curve with a large enough effect; inconclusive means small, poorly fitted or top-dose-only effect, or effect the other way; inactive means flat fitted curve, though single readings scatter; tested in HEK293 cells; also: % is scaled to controls: 0 for no effect and ±100 for the full control effect; nearly all actives have a fitted effect of over 50% in size; luciferase read-out
Cruzain inh Det – cruzain (T. cruzi) inhibition with detergent | P25779 | purified cruzain, Z-FR-AMC fluorescence, 0.01% Triton | Potency, µM, for inactives: max response, negative = inhibition, actives largely listed as inhibitors | 0.43% of 200,000 active | AID 1478;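 also: plate controls were neutral wells for no effect and buffer without enzyme for full effect; nearly all actives have a fitted effect of over 40% in size; top concentration of the series not given in the record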
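15 min RT preincubation of 1.5 nM cruzain with compound, then 2 uM Z-FR-AMC added; kinetic AMC fluorescence, 60 s delta. Triton X-100 0.01%, pH 5.5.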
NS1 function inh – inhibitors of influenza NS1 protein function | S. cerevisiae slowed by influenza A NS1, growth recovery by OD600 | Potency, µM (doses to about 46.1 µM), for the others: at the top dose activity, positive = more growth | 0.4% of 270,000 active | AID 2326; active means well fitted rising curve with a large enough effect; inconclusive means small, poorly fitted or top-dose-only effect; inactive means no such curve, though single readings can be large or run the other way; also: nearly all actives have a fitted effect of over 50% in size
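Growth recovery, yeast-based: influenza A NS1 expressed in S. cerevisiae causes slow growth, and suppressors are detected by OD600. The parent strain without NS1 is used as positive control.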
SARS PLpro yeast – inhibitors of SARS-CoV papain-like protease in yeast. AID 485353. Potency, µM (doses to about 32.9 µM), without a hit: at the highest dose activity, positive = growth rescue. S. cerevisiae expressing SARS-CoV PLpro, growth rescue; control for the full effect not named in the record. 0.19% of 330,000 active; active means well fitted rising curve with a large enough effect; inconclusive means small, poorly fitted or top-dose-only effect; inactive means no such curve, though single readings can be large or run the other way; also: 0% is about no effect; nearly all actives have a fitted effect of over 55% in size; growth read by luminescence after 48 h
MARV entry inh – inhibitors of Marburg virus binding or cell entry; Marburg virus pseudotyped entry inhibition, cell reporter; control for the full effect not named in the record; about a third of the inactives were read at about 46 µM; Potency, µM (titrated, usually from 37.8 µM), without a hit: at the highest dose activity change, negative = inhibition, actives largely listed as inhibitors; 1.8% of 300,000 active; AID 540276; active = well fitted inhibition curve with a large enough effect; inconclusive = small, poorly fitted or top-dose-only effect, or effect the other way; inactive = flat fitted curve, though single readings scatter; tested in HEK293 cells; about a fifth of its hits are not listed in these tables; also: % is scaled to controls: 0 for no effect and ±100 for the full control effect; luciferase read-out
RE007 growth inh – less growth of the S. pombe RE007 Vpr strain | S. pombe RE007 Vpr strain, BacTiter-Glo ATP luminescence, 24 h; control for the full effect not named in the record | Potency, µM (doses to about 92.2 µM), without a hit: at the top dose activity change, negative = less growth | 0.21% of 360,000 active; active = well fitted falling curve with a large enough effect; inconclusive = small, poorly fitted or top-dose-only effect; inactive = no such curve, though single readings can be large or run the other way;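 also: % is scaled to controls: 0 for no effect and ±100 for the full control effect; nearly all actives have a fitted effect of over 50% in size; the assay follows cell death caused by Vpr and the record does not say whether a fall means rescue or toxicity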
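Fission yeast strain RE007, carrying one chromosomally integrated HIV-1 vpr copy, was seeded at OD 0.01 in PMG+AL medium with 23 nL pinned compound. After 24 h at 30 °C and 99% humidity, viability was read by BacTiter-Glo luminescence.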
* hit, by the source's call; ? = inconclusive; . = not tested or not shown; & = joins results of further samples; [ ] = dose if it differs, or a comment. Unless noted, calls follow the shape of the dose curve; as a rule, active = well fitted curve in the direction sought with a large enough effect; inconclusive = small, poorly fitted or top-dose-only effect, or another doubt; inactive = no such curve, though single readings can be large; an effect the other way counts as inactive or inconclusive. Potency is read from the fitted curve at half-maximal effect.

smiles	StopGo reporter	Cruzain inh noDet	Lassa entry inh	Cruzain inh Det	NS1 function inh	SARS PLpro yeast	MARV entry inh	RE007 growth inh
Cc1cccc(NC(=O)COc2ccc(-c3nn(C)c(=O)c4ccccc34)cc2)c1	?	?	?	-6.0%	-22%	-2%	?	9%
Cc1cc(NC(=O)c2ccc(C#N)cc2)n(-c2ccccn2)n1	-16%	.	?	.	.	-1%	-17%[46.1 µM]	-4%
COc1ccc(NC(=O)COC(C)=O)cc1OC	10%	.	6%	.	2%	0%	6%[46.1 µM]	1%
CCCC(=O)N(CCN1CCOCC1)c1nc2c(OC)ccc(C)c2s1	-20%	.	-10%[46.1 µM]	.	-25%	-3%	3%[46.1 µM]	-25%
COc1cc(N)n(S(=O)(=O)c2ccc(C)cc2)n1	11%	.	.	.	8%	-1%	.	1%
O=C(O)COc1ccc(NC(=O)c2ccc(NC(=O)c3ccco3)cc2)cc1	-13%	.	6%	.	.	0%	-3%[46.1 µM]	-1%
COc1ccc(N2C(=NC(=O)C3CCCCC3)SC3CS(=O)(=O)CC32)c(OC)c1 (stereo not given)	4%	.	.	.	12%	-1%	.	0%
CN(CC(=O)Nc1ccc(Cl)cc1)C(=O)CCc1nc2sc3c(c2c(=O)[nH]1)CCCC3	-25%	.	0%[46.1 µM]	.	.	-1%	-3%	-10%
CC(=O)Nc1ccc(S(=O)(=O)Nc2cccc(NC(=O)C(C)(C)C)c2)cc1	6%	-1%	-18%	3.3%	-5%	2%	-9%[46.1 µM]	-14%
Cc1ccc(C(=O)NC(C)c2ccc(-n3ccnc3)cc2)o1 (stereo not given)	-9%	.	18%	.	.	2%	-8%[46.1 µM]	-19%
CCC(C)c1ccc(OCc2ccc(C(=O)OC)o2)cc1 (stereo not given)	34%[activator]	.	-23%	.	2%	0%	?	7%
CCC(=O)NC(c1ccc(OC)c(OC)c1)c1cc(Cl)c2cccnc2c1O (stereo not given)	-16%	.	?	.	3%	1%	?	14%
CCOC(=O)C1CCN(C2CCN(C(=O)c3oc4c(F)cccc4c3C)CC2)CC1	-14%	.	1%	.	6%	17%	-10%	-11%
CCc1ccc(NC(=O)C2CCN(C(=O)N3CC(CC)Oc4ccccc43)CC2)cc1 (stereo not given)	?	?	-10%[46.1 µM]	-9.2%	.	.	.	.
CCN(CC)S(=O)(=O)c1ccc(OC)c(NC(=O)c2sc3ccccc3c2Cl)c1	9%	5%	-12%[46.1 µM]	0.0%	.	.	11%[46.1 µM]	.
CC1CCC(NC(=O)CN(C)S(=O)(=O)c2cccc3cccnc23)CC1 (stereo not given)	4%	.	.	.	-8%	0%	.	0%
OC(COCc1ccccc1)CN1CCCC1 (stereo not given)	2%	0%	?	1.9%	4%	?	2%	-6%
Cc1ccc(NC2CCCN(C(=O)c3ccnc(Cl)c3)C2)cc1C (stereo not given)	0%	.	.	.	0%	0%	.	-4%
COC(=O)[C@@H](NC(=O)NCc1ccccc1F)C(C)C	.	-9%	4%	1.7%	-2%	4%	18%	1%
CCC1CCC2(CC1)SCC(=O)N2c1ccccc1 (stereo not given)	-19%	.	.	.	1%	1%	.	4%
Cc1ccc(C(=O)C[n+]2ccc(-c3nnc4n3CCC4)cc2)cc1	-19%	9%	20%	-3.5%	12%	7%	-1%	-2%
CC(C)n1c(SCC(=O)N2CCN(C(=O)c3ccco3)CC2)nc2c1c(=O)n(C)c(=O)n2C	-21%	.	2%	.	-12%	1%	1%[46.1 µM]	-12%
COc1cc(C2c3cc4c(cc3OC(C)(N3CCCC3)C2C)OCO4)cc(OC)c1OC (stereo not given)	-4%	.	?	.	.	.	?	-9%
O=C(On1c(-c2ccccc2)nc2ccccc2c1=O)c1ccco1	.	?	?	28µM*	-171%	.	-17%	?
CCOC(=O)c1ccc(NC(=O)C2CCN(S(=O)(=O)CC)CC2)cc1	-8%	4%	3%	5.6%	1%	3%	14%	0%
CC(=O)Nc1cc(C(=O)OCC(=O)c2ccc(C)cc2)ccc1C	55%[activator]	-11%	-2%	-5.4%	2%	13%	?	.
Cc1cccc(NC(=O)CC2Nc3cccc4cccc(c34)NC2=O)c1 (stereo not given)	?	-12%&-20%	-1%[46.1 µM]	-9.5%&-12%	8%	-3%	1%[46.1 µM]	0%
c1ccc(-c2csc3ncnc(N4CCc5ccccc5C4)c23)cc1	?	?	?	0.4%	8%	-16%	?	8%
Cc1ccc(C2CN=NC23CCc2ccccc2C3=O)cc1 (stereo not given)	-5%	1%	25%	-2.4%	-71%	-29%	9%	?
COc1cc(CC(=O)NCCc2ccc(OCc3ccccc3)cc2)c([N+](=O)[O-])cc1OC	15%	11%	1%	3.7%	16%	0%	1%	34%
CC(=O)NCCNC(=O)c1oc2ccccc2c1CSc1ncn[nH]1	-4%	.	2%[46.1 µM]	.	.	2%	9%[46.1 µM]	-14%
Cc1cc2ncn(C(=O)c3c(-c4ccccc4)noc3C)c2cc1C	.	16%	-15%	-11%	-23%	-5%	-6%	12%
O=C(NCc1ccccc1)C1CCCN(c2cnccn2)C1 (stereo not given)	-5%	.	.	.	?	3%	.	0%
Cc1cccc(OCc2ccc(-c3nc(C#N)c(N4CCC(C(N)=O)CC4)o3)o2)c1	0%	?	-11%[46.1 µM]	-5.0%	.	.	5%[46.1 µM]	.
O=C(c1ccccc1Sc1ccc([N+](=O)[O-])cc1Cl)N1CCOCC1	-17%	.	-14%	.	.	0%	?	0%
COc1ccc2occ(C(=O)c3ccccc3)c2c1	34%[activator]	.	?	.	.	-1%	9%	-20%
CCOC(=O)N1CCN(C(=O)CN2C(=O)CC(C)(C)S(=O)(=O)c3ccccc32)CC1	.	?	5%	2.7%	-4%	?	-17%	-14%
COCCn1nnnc1C(c1ccccc1OC)N1CCN(C(=O)c2ccco2)CC1 (stereo not given)	-4%	.	9%	.	-3%	1%	9%[46.1 µM]	2%
O=C(COC(=O)c1ccc([N+](=O)[O-])s1)Nc1ccccc1	-2%	-26%	-13%	-4.5%	-48%	-80%	3%	?
Cn1cccc2[nH]c(=O)nc1-2	-4%	.	10%	.	5%	0%	6%	13%
Nc1nnc(CC(=O)N/N=C/c2ccc(-c3ccccc3Cl)o2)s1	-21%	-15%	.	-16%	-3%	-10%	.	-9%
CCOC(=O)Cn1nnnc1C(CC)N(Cc1ccccc1)Cc1cc2cc(C)ccc2[nH]c1=O (stereo not given)	51%[activator]	?	-7%	-3.4%	2%	1%	?	-11%
O=P(N1CCCCC1)(N1CCCCC1)C(Cl)(Cl)Cl	-18%	4%	12%	-0.3%	-4%	?	-3%	13%[3.69 µM]
COc1cccc(-c2nc3n(n2)C(c2cccs2)C(C(=O)Nc2cccnc2)=C(C)N3)c1 (stereo not given)	-24%	-5%	.	2.5%	-12%	-2%	.	-3%
CCOC(=O)c1nc(NCc2ccccc2)sc1C	0%	.	.	.	5%	-5%	18%[46.1 µM]	0%
COCCNc1nc(SC)nc2sc3c(c12)CCN(C)C3	-7%	.	.	.	0%	0%	.	-1%
O=C(O)c1ccccc1SCC(=O)N1CCc2ccccc21	64%[activator]	.	?	.	.	2%	?	5%
O=C1[C@H]2[C@@H](c3ccc(Cl)cc3)N3C(=O)N(c4cccc(Br)c4)C(=O)[C@@]3(Cc3ccc(Cl)cc3)[C@H]2C(=O)N1C1CCCCC1	0%	.	.	.	?	4%	.	-16%
Cc1ccc(C)c(NS(=O)(=O)c2cc(C(=O)N3CCCC3)ccc2Cl)c1	22%	.	-9%	.	-1%	-1%	?	3%
CCN(CC)CCNC(=O)c1ccc(NC(=O)c2ccc(F)cc2F)cc1	-5%	.	0%[46.1 µM]	.	.	0%	?	3%
CCc1ccc(-n2c(SCC(=O)NC(C)CC)nc3n[nH]c(C)c3c2=N)cc1 (stereo not given)	-18%	?	-11%[46.1 µM]	-4.7%	.	.	.	.
COc1cc2ccccc2cc1C(=O)N1CCCC(C(F)(F)F)C1 (stereo not given)	-10%	.	-3%	.	.	-2%	-18%	6%
Cc1nn(Cc2ccccc2Cl)c(C)c1NC(=O)c1cc(C(C)C)on1	-9%	-17%	?	-5.2%	.	.	?	.
COc1ccc(CNS(=O)(=O)c2ccc3c(c2)CCN3C(=O)C2CC2)cc1	-30%	-10%	-17%	-7.6%	3%	-8%	1%	-7%
COc1ccccc1-c1nnc(NC(=O)c2ccc(S(=O)(=O)N(C)C)cc2)o1	-16%	-5%	-10%	-1.7%	-5%	-1%	-27%	-1%
Cc1c(NC(=O)CSC2=C(C#N)C(c3ccccc3F)CC(=O)N2)c(=O)n(-c2ccccc2)n1C (stereo not given)	-11%	2%	21%	6.3%	2%	2%	?	-11%
Cc1ccc(-c2nnc(N3CCN(C(=O)CN4C(=O)c5ccccc5C4=O)CC3)c3ccccc23)cc1	-16%	.	2%	.	5%	.	4%&4%	-1%
O=C(O)C1CCN(c2nc(-c3ccccc3)c3cc(Br)ccc3n2)CC1	-21%	.	?	.	14%	-10%	27%	24%
Cc1nc2sc(C(=O)O)c(N)c2c2c1COC(C)(C)C2	-2%	-23%	4%	-1.3%	13%	2%	0%	15%
Cc1cc(NC(=O)CN2CCC(n3nnc4cc(C(F)(F)F)ccc43)CC2)no1	.	-2%	-19%	-2.2%	-48%	2%	-1%	5%
Cc1nnc(SCCC(C)C)[nH]c1=O	-7%	16%	18%	4.1%	-2%	4%	5%[46.1 µM]	9%
CC(C)Cn1c(=O)c2ccccc2n2c(CCC(=O)NCC3CCCO3)nnc12 (stereo not given)	13%	.	8%[46.1 µM]	.	11%	-4%	-11%[46.1 µM]	-12%
Cc1ccccc1CN(C)C(=O)COC(=O)CSc1ccc([N+](=O)[O-])cc1	11%	.	3%	.	.	0%	6%	4%

This is a random part of the collection; overall some 4.7% were active at least once.
